High-throughput results as filed in PubChem BioAssay.
2A firefly – Primary qHTS Assay for Foot and Mouth Disease Virus Antivirals against NCGC Sytravon and CBC Compound Libraries: Firefly Luciferase Signal; HEK cells with a luciferase reporter of 2A StopGo recoding; 120,000 tested, 0.23% active; Potency, µM (titrated, usually from 57.5 µM), without a hit: at the highest dose signal change, negative = less light; AID 1745856, 2022; active = well fitted falling curve with a large enough effect; inconclusive = small, poorly fitted or top-dose-only effect; inactive = no such curve, though single readings can be large or run the other way; further: nearly all actives have a fitted effect of over 60% in size; overnight with compound
2A Renilla – Primary qHTS Assay for Foot and Mouth Disease Virus Antivirals against NCGC Sytravon and CBC Compound Libraries: Renilla Luciferase Signal; HEK cells with a luciferase reporter of 2A StopGo recoding; AID 1745857, 2022; Potency, µM (highest dose often 57.5 µM), for the others: at the highest dose signal change, negative = less light; 120,000 tested, 0.32% active; active means well fitted falling curve with a large enough effect; inconclusive means small, poorly fitted or top-dose-only effect; inactive means no such curve, though single readings can be large or run the other way; further: nearly all actives have a fitted effect of over 55% in size; overnight with compound
Numbers without * were called inactive; ? = inconclusive; [ ] = dose if it differs, or a comment. On the % scale 0 is the no-effect control and ±100 the full control effect; potency means the concentration at half of the fitted maximal effect.

SMILES	2A firefly	2A Renilla
O=C(Nc1ccc2c(c1)CCC2)C1(c2cccc(F)c2)CCC1	37.5%[activator]	35.3%[activator]
COc1ccc(CC(=O)NCc2ccc3c(c2)CCN3C(=O)c2ccc(Cl)cc2)cc1	-5.0%	-10.9%
C[C@]12C[C@H](O)[C@@H]3c4ccc(O)cc4CC[C@H]3[C@@H]1CCC2=O	8.8%	8.0%
Cc1ccccc1NC(=O)CCC(=O)N1CC(C)Sc2ccccc21 (centres undefined)	5.2%	70.7%[activator]
CCCCn1nc(C)c2c(C(F)(F)F)cc(-c3ccc(Br)cc3)nc21	-1.0%	-1.9%
O=C(C1CCCCN1S(=O)(=O)c1ccccc1)N1CCCCC1 (centres undefined)	-1.5%	0.8%
COc1ccc(-c2noc(CCC(=O)Nc3ccccc3Cl)n2)cc1OC	-23.8%	-0.4%
COC(=O)NC(c1ccccc1)c1ccccc1	11.9%	-2.9%
Cc1nc(N2CCCC2)c2c(C(=O)N3CCN(c4ccc(F)cc4)CC3)c(C)oc2n1	-20.0%	-5.0%
Clc1ccccc1-c1noc(CSc2nnc(C3CC3)n2-c2ccccc2)n1	13.3%	6.3%
CN(CC(=O)Nc1ccccc1Cl)Cc1ncc(-c2ccc(F)cc2)o1	106.4%[activator]	4.0%
CCOC(=O)C1C(=O)C=C(c2ccc(C)cc2)CC1c1cccc(Cl)c1 (centres undefined)	23.5%	40.5%[activator]
CSc1ccc(/C=C2\N=C(c3ccccc3)OC2=O)cc1	0.0%	1.6%
O=C(O)c1ccc(Oc2c(C(F)(F)F)oc3cc(O)ccc3c2=O)cc1	7.7%	3.0%
COc1ccc2oc(=O)c(-c3nc4ccc(C)cc4[nH]3)cc2c1	116.5%[activator]	15.2%
CC(=O)c1ccc(NC(=O)CCc2ncc(-c3ccccc3Cl)o2)cc1	14.9%	-5.4%
Cc1nc(-c2cc3ccc(OC(=O)CC(C)C)cc3oc2=O)cs1	55.8%[activator]	1.0%
Cc1ccc(-c2nn3c(=O)cc(CN4CCN(C(=O)Nc5cccc(C(F)(F)F)c5)CC4)nc3s2)cc1	3.5%	-10.4%
O=C(Nc1ccc2ncccc2c1)c1cc2cc(F)ccc2[nH]1	108.4%[activator]	14.3%
Cc1cc(C)cc(OCCSc2nc3ccc(NC(=O)c4ccc5c(c4)OCO5)cc3s2)c1	0.0%	0.9%
CCC(C(=O)N1CCN(c2cc(C)ccc2C)CC1)n1nc(C)n2c(cc3occc32)c1=O (centres undefined)	-18.0%	-15.2%
COCCN(CC(N)=O)S(=O)(=O)c1ccc(F)cc1Cl	0.8%	-4.3%
Cn1ccc2cc(S(=O)(=O)N3CCN(C(=O)Nc4ccccc4F)CC3)ccc21	13.6%	10.1%
O=C(NCc1ccccc1Cl)c1cnc(N2CCOCC2)c2ccccc12	-23.1%	122.4%[activator]
c1ccc(-n2cnnc2SCc2nc3ccccc3o2)cc1	48.2%[activator]	-4.5%

(continued)
SMILES	2A firefly	2A Renilla
CCCCSCC(=O)NC12CC3CC(CC(C3)C1)C2	149.0%[activator]	27.0%
COCCN(CCOC)CCOc1cccc(C#N)c1	-15.7%	-10.7%
Cc1cccc2cc(C3CC(c4ccco4)=NN3S(C)(=O)=O)c(Cl)nc12 (centres undefined)	-7.4%	0.0%
O=C(CCS(=O)(=O)Cc1cccc(F)c1)Nc1ccc(F)cc1	22.3%	30.4%
CC(C(=O)NCc1ccc2c(c1)OCO2)n1nc(-c2ccccc2)c2ccccc21 (centres undefined)	-5.9%	0.3%
CC(NCc1cccc(Oc2nnnn2-c2ccccc2)c1)c1ccccc1 (centres undefined)	5.2%	12.7%
Cc1ccccc1NC(=O)c1nn(C)c2c1COc1ccccc1-2	0.0%	-5.5%
CSc1ccc(C2=NN(C(=O)CCC(=O)O)C(c3ccc4nccnc4c3)C2)cc1 (centres undefined)	286.8%[activator]	23.1%
COC(CNC(=O)c1cc(-c2ccccc2)nc2ccccc12)OC	28.2%	7.0%
O=C(c1ccccc1OCc1nc(-c2ccccc2)no1)N1CCN(Cc2ccccc2)CC1	?	?
C/C=C1\[C@H]2C=C(C)C[C@]1(N)c1ccc(=O)[nH]c1C2	-13.9%[11.5 µM]	-5.8%
CNS(=O)(=O)c1cn(CC(=O)N2CCN(c3ccccc3F)CC2)cc1S(=O)(=O)NC	-20.8%	-13.0%
O=C(CSc1nnnn1C1CC1)NC(c1ccc(F)cc1)c1cccs1 (centres undefined)	-1.3%	-0.4%
CCC(C)NC(=O)CSc1cc(C)c2ccccc2n1 (centres undefined)	8.7%	8.2%
N#C/C(=C\C1CC=CCC1)C(=O)NCc1ccccc1 (centres undefined)	0.0%	40.2%[activator]
CC1=C(C(=O)Nc2ccccc2F)C(c2ccco2)C(C#N)=C(SCC(=O)NC(C)(C)C)N1 (centres undefined)	-4.1%	6.4%
CC(C)C/C=C(/C#N)c1nc2ccccc2[nH]1	0.0%	149.0%[activator]
Cc1ccc(-c2nnc(Nc3ccc(O)cc3)c3ccccc23)cc1S(=O)(=O)N1CCN(C)CC1	-11.5%	1.8%
COc1ccc(CCNC(=O)CS(=O)Cc2nc(-c3ccccc3F)oc2C)cc1OC (centres undefined)	0.0%	-5.3%
CCCNC(=O)c1c(NC(=O)c2ccccc2F)sc2c1CCCCC2	6.6%	-2.5%
COc1ccc(C2=NCC(=O)N(CC(=O)Nc3ccc(F)cc3)c3sc4c(c32)CCCC4)cc1	-14.5%	191.3%[activator]
Cc1oc(-c2cccc(Cl)c2)nc1CN1CCCC(C(=O)NCCc2ccc(Cl)cc2)C1 (centres undefined)	-4.1%	-11.1%
COc1ccc(CCNC(=O)CCCCn2c(=O)c3ccccc3n(Cc3ccc(Cl)cc3)c2=O)cc1OC	-1.7%	22.0%
Cc1ccc(N(C)S(=O)(=O)c2ccc(/C=C\c3onc(C)c3NC(=O)C3CC3)cc2)cc1C	?	?
COc1ccc(S(=O)(=O)NCc2cccn2Cc2cc(C)ccc2C)cc1OC	1.9%	352.7%[activator]

More structures follow.
SMILES	2A firefly	2A Renilla
CCN1CCN(CCNC(=O)CS(=O)Cc2nc(-c3ccc(Cl)cc3)oc2C)CC1 (centres undefined)	4.4%	-10.3%
COc1ccc(C(=O)/C=C/c2ccccc2C(F)(F)F)cc1F	0.0%	35.7%[activator]
CCN1CCN(c2nc(Nc3ccccc3)c3nccnc3n2)CC1	-5.5%	-16.8%
CC1(C)Cc2ccccc2/C(=C/C(=O)Nc2ccc(Cl)cc2)N1	119.7%[activator]	12.2%
CC1CCC(NC(=O)c2cc(C3CC3)nc3ccccc23)CC1 (centres undefined)	22.1%	58.2%[activator]
Cc1ccc(-c2csc(-c3cc4c([nH]c3=O)CC(c3ccco3)CC4=O)n2)cc1 (centres undefined)	24.2%	21.9%
Cc1ccccc1/C=N/NC(=O)c1ccc(C(C)(C)C)cc1	251.7%[activator]	41.1%[activator]
CC(C)Cc1nn2c(=O)cc(COC(=O)c3cccc(NC(=O)CCc4ccccc4)c3)nc2s1	-11.0%	-3.2%
COc1cccc(-c2nnc(-c3ccccc3NC(=O)c3ccc(F)cc3F)o2)c1	-14.0%	-12.4%
O=C(Nc1ccc2oc(-c3cc(Br)ccc3Cl)nc2c1)c1cc2ccccc2o1	1.3%	6.4%
O=C(CN1CCc2ccccc2C1)N1N=C(c2ccco2)CC1c1ccco1 (centres undefined)	-4.5%	32.3%[activator]
N#C/C(=C/c1cc(Br)cc(Br)c1O)c1nc2ccccc2[nH]1	22.2%	-13.3%
Cc1nc(CSc2ccc3c(c2)OCCCO3)oc1C	197.7%[activator]	32.4%
Nc1cccc(-c2cccc(N)c2)c1	0.0%	-11.1%
CC(C)c1ccc(C2CC(=O)Nc3cc4c(cc32)OCCO4)cc1 (centres undefined)	43.1%[activator]	14.6%
CC1(C)CC(N2CCCCC2)=CC(=NCCCN2CCOCC2)C1	0.0%	5.4%
CC(OC(=O)c1cn(C)c2ccccc12)C(=O)Nc1ccc(C(N)=O)cc1 (centres undefined)	10.4%	2.5%
CCCc1cc(=O)oc2cc(C)cc(OC(C)C(=O)NCCCN(C)C)c12 (centres undefined)	-9.9%	-11.6%
COc1ccc2[nH]cc(CCNC(=O)c3ccccc3F)c2c1	33.5%[activator]	94.8%[activator]
CCCCCn1nc(C(=O)Nc2ccc(C(=O)NC(C)(C)C)cc2)c2ccccc2c1=O	-1.4%	8.3%
COc1ccc(OC)c2[nH]c(C(=O)NCC(=O)Nc3nc(C)cs3)cc12	-4.3%	-6.2%
CCn1nc(C(=O)Nc2ccc(OC)c(NC(C)=O)c2)c2ccccc2c1=O	39.3%[activator]	0.0%
Cc1ccc(CN2CCCn3nc(C(=O)NCc4ccccc4Cl)cc3C2=O)cc1	-24.2%	69.2%[activator]
S=c1[nH]c(-c2cccc(Cl)c2)cs1	52.2%	31.3%
O=C(NCCS(=O)(=O)N1CCN(c2ccccc2F)CC1)C1CC(=O)N(c2ccc(F)cc2)C1 (centres undefined)	-9.5%	-13.7%

A run of entries from further up, for reference:
SMILES	2A firefly	2A Renilla
CCn1nc(C(=O)Nc2ccc(OC)c(NC(C)=O)c2)c2ccccc2c1=O	39.3%[activator]	0.0%
Cc1ccc(CN2CCCn3nc(C(=O)NCc4ccccc4Cl)cc3C2=O)cc1	-24.2%	69.2%[activator]
S=c1[nH]c(-c2cccc(Cl)c2)cs1	52.2%	31.3%
O=C(NCCS(=O)(=O)N1CCN(c2ccccc2F)CC1)C1CC(=O)N(c2ccc(F)cc2)C1 (centres undefined)	-9.5%	-13.7%

Single records, from the list above:
CC1CCC(NC(=O)c2cc(C3CC3)nc3ccccc23)CC1 (centres undefined) is listed with 2A firefly: 22.1%; 2A Renilla: 58.2%[activator]
CC1(C)Cc2ccccc2/C(=C/C(=O)Nc2ccc(Cl)cc2)N1 is listed with 2A firefly: 119.7%[activator]; 2A Renilla: 12.2%

Later entries
SMILES	2A firefly	2A Renilla
CCOC(=O)c1c(C)c(-c2ccccc2)n(CC(=O)Nc2ccc(OC)cc2OC)c1C	19.8%	6.8%
O=C1CCC(C(=O)OCc2ccc(Cl)cc2Cl)=NN1	-9.4%	-7.8%
O=C(c1cc(=O)c2cc(Cl)ccc2o1)N1CCC1	9.0%	-3.4%
Cc1c(C)n(C)c2ccc(C(=O)N3CCN(c4ccccc4)CC3)cc12	-13.3%	-3.1%
CCOc1ccc(C(=O)NCc2ccc3c(c2)CCN3C(=O)c2ccc(Cl)cc2)cc1	-16.9%	-10.8%
Cc1ccc(CNS(=O)(=O)c2cc(-c3cc(C)no3)ccc2C)cc1	17.7%	272.8%[activator]
CCc1ccc(NC(=O)CSc2ccc3nc(-c4ccc(OC)cc4)cn3n2)cc1	122.3%[activator]	-4.6%
Cc1ccccc1Cn1c(SCc2ccc(C(=O)NC3CCCC3)cc2)nc2ccncc21	-3.6%	-6.3%
COc1ccc(NC(=O)c2sc(-c3ccco3)nc2-c2ccccc2)cc1OC	22.0%	33.5%[activator]
Cn1nc(C(=O)Nc2cc(Cl)cc(Cl)c2)c2ccccc2c1=O	2.5%	-2.5%
CCOC(=O)CCNC(=O)c1ccc(Br)cc1Cl	131.7%[activator]	-4.8%
Cc1ccc(S(=O)(=O)N2CCN(C(=O)CSc3nc(C)cc(=O)[nH]3)C2)cc1	-11.4%	-11.1%
Cc1ccc(C(=O)CC(=O)c2ccc(C)cc2)cc1	204.7%[activator]	20.7%
COc1ccc(Cl)cc1NC(=O)[C@H]1C[C@@H]2CCCN2[C@]12C(=O)Nc1c(Cl)cc(C)cc12	6.3%	10.5%
CCc1ccc(-n2c(=O)c3c4c(sc3n(CC(=O)c3ccc(Cl)cc3)c2=O)CCC4)cc1	-15.2%	-7.8%
CCc1ccc2occ(CC(=O)Nc3c(C(=O)Nc4ccc(C)cc4)oc4ccccc34)c2c1	36.3%[activator]	-20.3%
Cc1ccc(O)c(C(=O)N(C)Cc2cccc(F)c2)c1	7.1%	137.7%[activator]
CCOc1ccc(C(C)(C)CC)cc1-c1csc(N)n1	3.0%	-1.7%
Cc1oc(-c2ccccc2)nc1C(=O)N(C)CC(=O)Nc1cccc(F)c1	-1.0%	-1.9%
CCOc1cc(C(=O)Oc2ccc(C#N)cc2OC)cc(OCC)c1OCC	4.0%	0.0%
COc1ccc(Cl)cc1NC(=O)C1CCN(c2nnc(C)c3c(C)n(-c4ccccc4)nc23)CC1	-17.8%	-7.2%
COc1ccc(C(=O)Nc2ccc(N(C)Cc3ccccc3)c(C(=O)O)c2)cc1	5.1%	-7.1%
O=C(/C=C/c1ccccc1)NCCO	-5.1%	-11.3%
Cc1ccc(CCNC(=O)CCCc2nnc3n(C)c(=O)c4sccc4n23)cc1	-15.0%	-8.1%
CCCCc1ccc(C(=O)NC(Cc2ccccc2)C(=O)O)cc1 (centres undefined)	0.0%	20.6%
CCOc1ccccc1NC(=O)c1c(NCc2sccc2C)sc2c1CCC(C)C2 (centres undefined)	0.0%	124.6%[activator]
CC(C)(C)OC(=O)N1CCC(c2c(C(=O)N3CCC(c4ccccc4)C3)cnn2-c2ccc(Cl)cc2)CC1 (centres undefined)	-6.1%	-6.7%

Shown as labelled records: part of the list above.
CC(C)(C)OC(=O)N1CCC(c2c(C(=O)N3CCC(c4ccccc4)C3)cnn2-c2ccc(Cl)cc2)CC1 (centres undefined)
- 2A firefly: -6.1%
- 2A Renilla: -6.7%
COc1ccc(S(=O)(=O)NCc2cccn2Cc2cc(C)ccc2C)cc1OC
- 2A firefly: 1.9%
- 2A Renilla: 352.7%[activator]
Cc1ccc(C(=O)CC(=O)c2ccc(C)cc2)cc1
- 2A firefly: 204.7%[activator]
- 2A Renilla: 20.7%

The list is partial; the hit share may differ from the screen's.
